Bioassay records: PubChem BioAssay, several laboratories
RanGTP-Impb inh – disruptors of Ran-importin-beta complex formation – biochemical, FRET, CFP-Ran, YFP-importin-beta, homogeneous, primary screen | cell-free CFP-Ran/YFP-importin-beta FRET ratio | inhibition, % (concentration not given with the values) | 300,000 compounds, 1.1% hits;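 active means most replicates above 15%; inconclusive means exactly half above 15%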;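 further: 0% = DMSO wells and 100% = Ran loaded with GDP instead of GTP; wells of about 40 µL received 100 nL stock; the first replicate is given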
LANA-H2A inh – blocks KSHV LANA binding to histone H2A/H2B; Q9QR71; cell-free LANA-H2A/H2B peptide, fluorescence polarization; inhibition, % (test concentration not listed); 320,000 compounds, 0.6% hits; in the data active means inhibition mostly above about 10%, no sharp cut-off; inactive means mostly below about 6.7%;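 further: stock transfer was 7.5 nL into about 10 µL; 0% = median of vehicle wells and 100% = median of positive control wells; one replicate is shown; the record names a cut of 25% in any replicate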
Calb FLC – C. albicans growth modulation with fluconazole. C. albicans CaCi-2 (fluconazole-resistant clinical isolate) + fluconazole, Alamar Blue growth, 48 h. growth inhibition, % (concentration not given with the values). 300,000 compounds, 0.57% hits. AID 1979;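 active means most replicates above 75%; inconclusive means exactly half above 75%; inactive means most below 75%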;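 further: all wells also contain fluconazole at 8 µg/ml as a sub-toxic cotreatment; 0% = median of DMSO wells and 100% = median of geldanamycin control wells; wells of about 8 µL received 7.5 nL stock; the first replicate is given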
Vif A3G – HIV-1 Vif–A3G interaction blockers – biochemical, TR-FRET, GST-Vif 1-94, biotin-A3G peptide, dose response retest, primary screen (AID 1117319); TR-FRET GST-Vif / biotin-A3G peptide binding; higher % means a stronger effect; test concentration not given here; strong numbers were not always called active; one-dose inhibition, %; IC50 in µM for titrated hits; 260,000 compounds, 0.57% hits;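 active means above the screen mean plus three standard deviations and confirmed in dose response; inconclusive means results disagree or hit not tested in dose response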;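 further: Vif residues 1-94 fused to GST binding biotinylated APOBEC3G peptide 110-148; 0% = full assay without inhibitor and 100% = GST in place of GST-Vif; retest series ran down from 100 µM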
HNF4A DNA FP – change in binding of human HNF4 alpha to DNA | activity change, % at 10 µM | HNF4a-FITC DNA binding, fluorescence polarization, 1 h | 360,000 compounds, 0.3% hits | P41235; in the data active means activity change above about 30%, passing the limit was not always enough;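 further: controls were the assay level and a saturating level of protein; the project sought stronger binding though the title names inhibitors; some compounds called inactive have numbers as strong as hits; positive values seem to mean higher polarization but the record does not say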
Target sequence (P41235 whole entry, looked up): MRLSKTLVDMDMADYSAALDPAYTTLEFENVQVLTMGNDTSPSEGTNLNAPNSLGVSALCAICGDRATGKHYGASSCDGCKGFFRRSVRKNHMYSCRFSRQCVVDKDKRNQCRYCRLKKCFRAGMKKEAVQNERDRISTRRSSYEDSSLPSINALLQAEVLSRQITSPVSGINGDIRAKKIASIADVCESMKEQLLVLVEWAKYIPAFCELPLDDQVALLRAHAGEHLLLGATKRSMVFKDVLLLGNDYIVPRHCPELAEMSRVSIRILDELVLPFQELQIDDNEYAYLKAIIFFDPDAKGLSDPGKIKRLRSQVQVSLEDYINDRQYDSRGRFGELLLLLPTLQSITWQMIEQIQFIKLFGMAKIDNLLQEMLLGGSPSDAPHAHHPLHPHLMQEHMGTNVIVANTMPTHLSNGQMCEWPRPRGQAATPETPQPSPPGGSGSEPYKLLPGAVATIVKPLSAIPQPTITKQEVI
ALR inh – inhibitors of human sulfhydryl oxidase ALR. P55789. purified ALR, DTT oxidation, H2O2 HRP-luminol luminescence. inhibition, % (no concentration beside the values). 290,000 compounds, 3.8% hits;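 active means mean and each replicate at 75% or more; inconclusive means only one of the two met; inactive means neither met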;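 further: stock transfer was 7.5 nL into about 7.5 µL; 0% = neutral wells and 100% = wells with inactivated enzyme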
Target sequence (P55789 whole entry, looked up): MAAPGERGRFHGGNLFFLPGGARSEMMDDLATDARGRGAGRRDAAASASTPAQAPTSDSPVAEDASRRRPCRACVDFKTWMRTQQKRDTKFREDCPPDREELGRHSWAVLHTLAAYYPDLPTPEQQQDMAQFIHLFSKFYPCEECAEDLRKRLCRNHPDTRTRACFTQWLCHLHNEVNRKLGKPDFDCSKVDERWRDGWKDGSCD
Beta2AR agonist – human beta-2 adrenergic receptor agonism by FAP; Am2.2-beta2AR cells, FAP receptor internalization, flow cytometry; reference of the scale not given here; response, % (no concentration beside the values); 340,000 compounds, 0.43% hits; AID 504454;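 active means response above a set limit, near 3 SD of response in nonfluorescent compounds, cut at about 42% in these data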;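 further: stock transfer was 100 nL into about 11 µL; a reference agonist was the positive control; negative values mostly stem from fluorescent compounds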
Target sequence (P07550 whole entry, looked up): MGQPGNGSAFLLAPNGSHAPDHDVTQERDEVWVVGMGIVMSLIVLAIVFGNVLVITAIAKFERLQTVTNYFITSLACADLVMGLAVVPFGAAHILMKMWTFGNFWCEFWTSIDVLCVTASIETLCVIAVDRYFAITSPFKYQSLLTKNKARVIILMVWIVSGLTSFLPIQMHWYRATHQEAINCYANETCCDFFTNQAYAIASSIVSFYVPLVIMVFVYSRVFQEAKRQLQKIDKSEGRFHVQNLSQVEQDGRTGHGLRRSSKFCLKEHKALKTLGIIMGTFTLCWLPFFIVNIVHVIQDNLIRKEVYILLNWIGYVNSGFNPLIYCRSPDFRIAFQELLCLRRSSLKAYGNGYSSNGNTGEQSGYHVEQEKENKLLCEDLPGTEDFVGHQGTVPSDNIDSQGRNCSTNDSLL
An asterisk follows results filed as active; ? = inconclusive; nt = not tested or not shown.

SMILES | RanGTP-Impb inh | LANA-H2A inh | Calb FLC | Vif A3G | HNF4A DNA FP | ALR inh | Beta2AR agonist
Cc1ccc(-c2nc(S(=O)(=O)c3ccc(F)cc3)c(SCC(=O)NCC3CCCO3)o2)cc1 (configuration not stated) | -6.2 | 1.7 | ? | -2% | 3.9 | -10 | -8
CN(CC(=O)Nc1ccc(F)cc1)C(=O)COC(=O)C1=COCCO1 | 1.8 | 3.6 | -4 | 3% | -4.7 | -5 | -7
Cc1cc(C)cc(NC(=O)C2(c3cccs3)CCOCC2)c1 | 0.7 | -4.8 | 11 | -3% | -4.5 | -2 | -3
Cc1ccc2[nH]c(=S)cc(C)c2c1 | -2.7 | -1.7 | 4 | 3% | -1.1 | -17 | 5
CC(C(=O)Nc1cccc(C#N)c1)N(C)CCOc1ccccc1 (configuration not stated) | -1.6 | 2.7 | -13 | nt | 3.2 | -3 | 4
O=C(CNC(=O)c1ccccc1Br)N/N=C/c1cc(Br)ccc1O | 0.2 | -1.9 | -4 | -8% | 0.8 | nt | -9
O=C(O)CN1C(=O)/C(=C/c2ccc(N3CCCCC3)o2)SC1=S | -2.9 | 1.6 | -4 | 32% | -8.9 | nt | 11
CC1Sc2ccc(S(=O)(=O)CCC(=O)NC(C)c3ccccc3)cc2NC1=O (configuration not stated) | -2.5 | -5.1 | -4 | nt | 2.2 | -5 | -5
Cc1nc2c(sc3nc(N4CCOCC4)c4c(c32)CC(C)(C)OC4)c(-c2ccccc2)c1C(=O)O | 23* | -3.4 | -2 | -55% | 12 | nt | -8
N#Cc1nc(-c2ccc(F)cc2)oc1NCc1cccc2c1OCO2 | 2.3 | 0.2 | -2 | -5% | -1.3 | -20 | 1
CC(C)(C)N1C(=O)[C@H]2[C@@H](c3ccc(Br)cc3)N3C(=O)N(c4cccc(F)c4)C(=O)[C@@]3(Cc3ccccc3)[C@H]2C1=O | 3.1 | -0.1 | -4 | nt | -1.2 | -5 | -4
C=C1CCN([C@@H](CC(C)C)C(=O)NCc2cc(OC)c(OC)c(OC)c2)S(=O)(=O)c2ccccc21 | 0.5 | 1.2 | -5 | nt | 0.9 | -13 | 9
COc1ccccc1NC(=O)CN1CCN(CC(=O)Nc2ccccc2Cl)CC1 | ? | 3.2 | -3 | -7% | -1.4 | 3 | -6
COc1ccc(OC)c(N/C(=N/c2nc(C)cc(C)n2)NC(C)=O)c1 | -1.7 | 3.2 | -14 | 6% | -0.8 | -3 | 8
COc1ccc(C(=O)N2CCN(C(=O)C3COc4ccccc4O3)CC2)cc1 (configuration not stated) | 1.4 | 3.9 | 10 | nt | -0.7 | 6 | 1
CCOCCOC(=O)c1ccc(NC(=O)c2cc(OC)c(OC)c(OC)c2Br)cc1 | 5.0 | nt | -10 | 19% | -2.0 | nt | 1
CCc1c(C#N)c(SCCC(=O)Nc2ccc(F)cc2)nc2c1C(=O)CC(C)(C)C2 | 7.5 | -0.2 | 17 | -4% | -1.1 | -7 | 18
COc1cc(S(=O)(=O)NC2CCCCC2)ccc1Cl | -4.2 | 2.0 | -16 | 14% | -1.2 | -22 | -3
CCOC(=O)c1c(/N=C/C2C(=O)CCCC2=O)sc(C)c1C | -0.6 | nt | 25 | 26% | 1.8 | nt | -3
COC(=O)c1cc(-c2c[nH]c3ccccc23)n[nH]1 | 0.3 | -0.9 | -16 | -2% | 3.2 | 5 | 14
COC(=O)[C@@H]1CCCN1C(=O)c1cc(COc2cccc3cccnc23)on1 | 2.3 | -1.9 | -1 | nt | -6.3 | -13 | 5
CC1CCCN(CC(O)COc2ccc(S(=O)(=O)N3CCCC3)cc2[N+](=O)[O-])C1 (configuration not stated) | nt | -1.0 | nt | -11% | 0.1 | nt | -2
O=C(NCc1cccnc1)/C(=C/c1ccco1)NC(=O)c1ccccc1 | -0.5 | 0.7 | -19 | 15% | -1.4 | 5 | -13
Cc1ccc(Nc2c(-c3ccc(N4CCOCC4)cc3)nc3ncccn23)cc1C | -0.1 | -0.8 | -7 | 1% | 1.3 | 94* | -21
COc1ccc(NC(=O)c2ccc(C)o2)c([N+](=O)[O-])c1 | -3.1 | 2.6 | -2 | -3% | -0.5 | -12 | 7

Structural class: those above containing an NH in an aromatic ring
SMILES | RanGTP-Impb inh | LANA-H2A inh | Calb FLC | Vif A3G | HNF4A DNA FP | ALR inh | Beta2AR agonist
Cc1ccc2[nH]c(=S)cc(C)c2c1 | -2.7 | -1.7 | 4 | 3% | -1.1 | -17 | 5
COC(=O)c1cc(-c2c[nH]c3ccccc23)n[nH]1 | 0.3 | -0.9 | -16 | -2% | 3.2 | 5 | 14

(cont.)
SMILES | RanGTP-Impb inh | LANA-H2A inh | Calb FLC | Vif A3G | HNF4A DNA FP | ALR inh | Beta2AR agonist
CC(=O)c1ccc(NC(=O)CN2CCN(c3ccccc3)CC2)cc1 | 1.2 | 5.0 | -6 | -4% | 1.9 | 67 | -5
Cc1cccc(OCC(=O)Nc2nnc(S(=O)(=O)N3CCCCC3)s2)c1 | -3.0 | -0.2 | 4 | nt | 1.0 | 2 | -10
O=S(=O)(c1ccc(Cl)c(NC(=S)N/N=C/c2ccc(O)cc2)c1)N1CCOCC1 | -11 | 4.2 | -3 | -2% | -2.5 | 99* | 17
CC1CCCN(C(=O)COC(=O)Cc2ccc(Cl)cc2)C1 (configuration not stated) | -0.2 | 14 | 12 | nt | -0.8 | -3 | 3
Cc1ccc(NC(=O)CS(=O)(=O)c2cn(C)c3ccccc23)c(C)c1 | 4.5 | -1.0 | 0 | nt | 0.4 | -2 | 0
COc1ccc2c(c1)CCCC21NC(=O)N(CC(N)=O)C1=O (configuration not stated) | -0.4 | nt | 5 | 4% | -2.7 | nt | -1
COCCCNC(=O)Cc1ccc(-n2c(C)nc3cccnc32)cc1 | -0.9 | -0.7 | -7 | 0% | -0.5 | 18 | -2
Cc1nc2sc(C(c3ccco3)N3CCN(c4ccccc4)CC3)c(O)n2n1 (configuration not stated) | 1.9 | 1.4 | 0 | nt | 1.7 | 42 | -2
Clc1ccc(-c2cn3ccccc3n2)cc1 | 1.3 | -0.4 | -31 | nt | 5.6 | -17 | -1
CCn1c(SCC(=O)Nc2ccccc2C(=O)OC)nnc1-c1ccoc1C | -0.3 | 6.2 | -4 | -3% | 0.7 | -1 | -4
CC(=O)c1ccc(-c2[nH]c3ccccc3c2CCN2C(=O)c3ccccc3C2=O)cc1 | nt | nt | nt | 0% | -1.3 | nt | 18
COc1ccc(C(=O)NCc2cn3c(C)csc3n2)cc1OC | -2.2 | 2.6 | ? | 27% | 0.3 | -2 | 1
COc1ccc(OC)c(N(CC(=O)Nc2ccc(NC(C)=O)cc2)S(C)(=O)=O)c1 | 3.4 | 1.7 | 8 | 0% | 1.7 | -22 | -2
CC1CC(=O)Nc2ccccc2N1S(=O)(=O)c1ccc(C(F)(F)F)cc1 (configuration not stated) | -4.7 | -7.3 | 1 | nt | 2.0 | -2 | 0
CC(NC(=O)Cn1cccc1)c1ccccc1 (configuration not stated) | -0.1 | 0.9 | 3 | -6% | -1.0 | 5 | -1
O=C(COC(=O)COc1ccc(Cl)cc1)Nc1ccc(F)c([N+](=O)[O-])c1 | ? | 1.0 | 3 | nt | 1.1 | 34 | 5
O=Cc1cn(-c2ccccc2)nc1-c1cc2cc(O)ccc2oc1=O | 40* | -2.7 | 4 | 12% | -10 | -7 | -7
COc1ccc(NC(=S)NC(=O)/C=C/c2ccco2)c(OC)c1 | -2.5 | 5.8 | 0 | nt | -4.1 | 8 | 16
NC(=O)C(c1ccccn1)c1ncc(C(F)(F)F)cc1Cl (configuration not stated) | -2.3 | 0.7 | 25 | nt | -3.2 | 0 | 1
O=C(COc1ccccc1-c1ccccc1)c1ccccc1 | 0.2 | nt | 4 | 4% | -1.4 | nt | -3
CC(=O)Nc1cc2c(cc1[N+](=O)[O-])-c1ccc(F)cc1C2 | nt | nt | nt | -2% | 32* | nt | -6
CC1(C)CC(=O)C(C=Nc2cccnc2)=C(O)C1 | 4.0 | 1.8 | -3 | 1% | -1.5 | nt | 1
COc1cc(NC(=O)c2ccccc2C)c(OC)cc1NC(=O)CN1CCOCC1 | ? | -2.5 | 10 | nt | -0.8 | -15 | -1
COc1ccc(-n2nnc3c(SCC(=O)NCC4CCCO4)ncnc32)cc1 (configuration not stated) | nt | 2.6 | nt | 2% | -0.7 | 48 | 0
COc1ccccc1CCNC(=O)C(=O)Nc1cc2c3c(c1)CC(=O)N3CCC2 | 3.3 | -4.6 | 4 | 4% | 0.0 | -8 | -2

Further compounds
SMILES | RanGTP-Impb inh | LANA-H2A inh | Calb FLC | Vif A3G | HNF4A DNA FP | ALR inh | Beta2AR agonist
O=C(Nc1ccccc1)Nc1scc2c1c(=O)oc1ccccc12 | 0.7 | -0.6 | -3 | 5% | nt | -1 | nt
CCOCCOC(=O)COc1ccc(N2C(=O)c3ccccc3C2=O)cc1 | 2.8 | nt | -16 | 6% | nt | nt | nt
CC(C)(C)n1nc2c(c1NC(=O)c1ccc(S(=O)(=O)N3CCCC3)cc1)CS(=O)C2 (configuration not stated) | -0.2 | -8.7 | -4 | ? | -0.7 | -1 | 0
O=C1COc2ccc(S(=O)(=O)N3CCN(c4ccccc4)CC3)cc2N1 | -0.3 | 5.5 | 13 | nt | -5.8 | 1 | -1
Cn1c(C(=O)N(Cc2ccccc2)Cc2cccs2)cc2sccc21 | -0.6 | -3.0 | 3 | 3% | -0.2 | 0 | -1
CCOC(=O)c1csc(COc2ccccc2Cl)n1 | -1.6 | -6.2 | -19 | -4% | -2.5 | nt | -6
C=CCn1c(SCC(=O)c2ccc(O)c(O)c2)nnc1-c1cccc(OC)c1 | nt | 6.2 | nt | nt | -5.4 | 99* | -3
Cc1ccc(CNC(=O)CN(c2ccc(C)cc2)S(=O)(=O)c2c(C)n[nH]c2C)cc1 | 3.2 | -7.5 | 20 | -6% | 1.3 | -3 | 1
NC(=O)c1ccc(Nc2ccc([N+](=O)[O-])cc2[N+](=O)[O-])cc1 | 4.4 | -2.6 | 58 | -12% | -3.3 | -6 | -7
N#CC1=C2SCN(Cc3ccccc3)CN2C(=O)CC1c1cccs1 (configuration not stated) | 1.3 | 3.4 | -8 | 12% | -0.9 | -3 | -10
O=C(CN1C(=O)NC2(CCc3ccccc32)C1=O)Nc1cc(C(F)(F)F)ccc1N1CCOCC1 (configuration not stated) | -1.0 | -3.7 | 2 | nt | nt | -5 | nt
CCOc1ccc(S(=O)(=O)NCC2(N3CCCCC3)CCCCC2)cc1 | nt | nt | nt | -3% | -0.5 | nt | 7
CC(C)CC(NS(=O)(=O)c1cccc(C(=O)O)c1)C(=O)O (configuration not stated) | -2.2 | -3.4 | -8 | 1% | -1.4 | -41 | 2
CCOC(=O)N1CCN(Cc2nnc(-c3ccccc3Cl)o2)CC1 | -2.7 | 0.6 | -1 | 6% | 4.2 | 13 | 10
COc1ccc(OCC(=O)Nc2sc3c(c2C(=O)NCC2CCCO2)CCC3)cc1 (configuration not stated) | 6.8 | -0.4 | 21 | -9% | -0.6 | -5 | -11
CC(=O)N1c2ccc(N=Cc3cc(Br)cc(Br)c3O)cc2CC1C (configuration not stated) | 13 | -13 | -1 | -5% | nt | 36 | nt
N#Cc1ccc(Cl)cc1NC(=O)CNCc1cccs1 | 1.1 | 4.7 | 0 | nt | -0.3 | nt | -1
COC(=O)c1cc(NC(=O)CSc2nncn2C)cc(C(=O)OC)c1 | 0.4 | 3.4 | -3 | 2% | -2.9 | -6 | 3
O=C(Cc1ccccc1)NCC(=O)Nc1ccc(OC(F)(F)F)cc1 | -4.0 | 2.7 | 5 | 4% | 1.6 | -2 | 1
O=S(=O)(c1ccccc1)c1cnc(-c2cccnc2)nc1-c1ccc(Cl)c(Cl)c1 | 9.7 | -3.7 | -27 | -9% | -5.3 | -12 | 8
C[C@@H](NC(=O)[C@@H]1Cc2ccccc2CN1)C(=O)NCc1ccco1 | -3.5 | 3.2 | -10 | 1% | -2.3 | 0 | 3
